# Screening results deposited in PubChem BioAssay by Johns Hopkins Ion Channel Center.
# Kir21 block = blocks the mouse Kir2.1 inward-rectifier potassium channel; P35561; 0.85% of 310,000 active; HEK293-Kir2.1, FluxOR thallium flux fluorescence; stronger effect = lower value; B-score at 10 µM;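 active = fluorescence ratio B-score at or below minus 3 SD of library scores, with starting-brightness B-score within 2 SD, cut at about -4.2 in these data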;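 note: channel flux triggered by added potassium and thallium sulfate stimulus; B-score of peak minus minimum fluorescence over baseline after thallium stimulus; more negative B-score means stronger Kir2.1 block with less thallium influx; some compounds called inactive have numbers as strong as hits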
# Target sequence (P35561 whole entry, looked up): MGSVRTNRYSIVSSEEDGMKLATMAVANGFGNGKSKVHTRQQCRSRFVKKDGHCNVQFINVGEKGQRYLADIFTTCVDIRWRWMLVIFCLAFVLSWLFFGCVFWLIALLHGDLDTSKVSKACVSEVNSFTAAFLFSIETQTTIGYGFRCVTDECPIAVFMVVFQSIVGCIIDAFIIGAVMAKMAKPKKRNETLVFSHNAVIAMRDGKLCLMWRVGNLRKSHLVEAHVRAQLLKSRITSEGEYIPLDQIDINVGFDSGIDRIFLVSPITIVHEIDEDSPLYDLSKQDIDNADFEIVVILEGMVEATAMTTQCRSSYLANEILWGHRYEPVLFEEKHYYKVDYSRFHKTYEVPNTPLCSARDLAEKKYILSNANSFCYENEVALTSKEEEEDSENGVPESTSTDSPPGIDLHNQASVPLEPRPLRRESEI
# Starred values were filed as active, the others as inactive.
Kir21 block | mol
-1.8 | CCn1cc(C(=O)Nc2ccc(F)c(F)c2)cn1
0.69 | COc1cc(-n2c(=O)c3ccccc3n(Cc3cccnc3)c2=O)cc(OC)c1OC
-0.65 | C=CCc1cccc2cc(C(=O)OCC(=O)c3ccccc3)c(=O)oc12
-0.02 | CC(C)N1CC(O)=C(c2ccccc2)C1=N
0.17 | COc1ccc(NS(=O)(=O)c2ccc3c(c2)n(C)c(=O)n3C)cc1
1.5 | Cc1nn(CC(=O)NC2CCCCC2)c(=O)c2cccn12
1.1 | COc1ccc(Cc2nc(-c3ccccc3)no2)cc1
-0.72 | CC1(C)N(OCc2ccccc2)C(=O)C(=O)N(OCc2ccccc2)C1(C)C
1.6 | Cc1cc2c3c(c1C)C1(C(=O)N3C(C)(C)CC2C)C(C#N)=C(N)Oc2cc(O)ccc21 (centres undefined)
0.14 | COc1ccccc1Nc1nc2c(C)cccc2cc1C#N
0.46 | CCn1c(C)cc(/C=C2/SC(=S)N(CC(=O)O)C2=O)c1C
1 | CCCCCCCCCC(=O)Nn1cnc2ccccc2c1=O
-0.71 | COCCN(C(=S)Nc1ccccc1OC)C1CCN(C(C)C)CC1
1.2 | Cc1ccsc1C1Nc2ccc3ncccc3c2C2=C1C(=O)CCC2 (centres undefined)
-1.3 | CCOC(=O)C1CCN(c2nc(C)cc(C)c2C#N)CC1
0.08 | COCCCNC(=O)Cn1cnc2sc(C)c(S(=O)(=O)N3CC(C)CC(C)C3)c2c1=O (centres undefined)
-0.15 | OC(c1ccccc1)(c1ccccc1)C1CCN(C(=S)NCCc2ccccc2)CC1
-0.48 | CCn1c(NCc2cc(Cl)ccc2O)nc2ccccc21
-0.04 | Cc1ccccc1NS(=O)(=O)c1nnc(NC(=O)c2ccc(Cl)cc2)s1
-0.96 | CCNC(=O)CC1C(=O)N(c2ccc(C)cc2)C(=O)N1Cc1ccccn1 (centres undefined)
-0.74 | Cc1ccc(C(=O)N2CCNC(=O)C2CC(=O)Nc2ccc(F)cc2)cc1C (centres undefined)
0.28 | O=C(O)Cc1nn(Cc2ccc(Cl)cc2)c(=O)c2ccccc12
-0.55 | O=[N+]([O-])c1ccc(COc2ccc(Br)cc2CN2CCOCC2)cc1
-0.4 | NC(=O)C1CCN(C2=C(NS(=O)(=O)c3ccc(Br)cc3)C(=O)c3ccccc3C2=O)CC1
1.6 | COc1ccc(C(=O)OCC(=O)N(C)C2CCS(=O)(=O)C2)cc1S(=O)(=O)N1CCCc2ccccc21 (centres undefined)

# Retrieved one by one from the entries so far, 2 records:
Kir21 block | mol
-0.4 | NC(=O)C1CCN(C2=C(NS(=O)(=O)c3ccc(Br)cc3)C(=O)c3ccccc3C2=O)CC1
-0.04 | Cc1ccccc1NS(=O)(=O)c1nnc(NC(=O)c2ccc(Cl)cc2)s1

# (more compounds)
Kir21 block | mol
0.88 | COCCNc1nc(C)cc(-c2cc(C(=O)NC3CCCC3)on2)n1
0.01 | Cc1nc2c(c(=O)n1CCC(C)C)c1nc3ccccc3nc1n2Cc1ccc2c(c1)OCO2
0.42 | COc1ccc2nc(NC(=O)CS(=O)(=O)Cc3ccccc3)sc2c1
0.29 | CCc1ccc(N2C(=O)CN(CC(=O)OC)C2=S)cc1
-0.5 | COc1ccc(CNC(=O)CSc2nnnn2-c2ccccc2)cc1
0.96 | COc1ccc(C(CNC(=O)c2ccco2)N2CCCCC2)cc1 (centres undefined)
1 | Cc1c(NS(=O)(=O)c2ccc(N(C)C3CCCCC3)c([N+](=O)[O-])c2)c(=O)n(-c2ccccc2)n1C
-0.47 | O=C(NCc1ccc(F)cc1)c1cc2ccccn2n1
-0.11 | CCn1c(Oc2ccc(F)cc2)nc2c1c(=O)n(C)c(=O)n2C
0.14 | Cc1ccc(Cl)c(OCCN2CCCC(C)C2)c1 (centres undefined)
-0.31 | COc1ccc(C(=O)NNC(=O)Cc2ccc(-c3ccccc3)cc2)cc1OC
0.52 | CCCCNC(=O)CO/N=C(\C)c1cc2ccccc2o1
1.2 | COc1cccc(-n2c(C)nc3c(cnn3-c3ccc(C)cc3)c2=O)c1
1.1 | CC(C)c1ccccc1NC(=O)Nc1ccc2c(c1)OCO2
0.28 | O=S1(=O)NC(=NCCOCCO)c2ccccc21
2.3 | O=C(CCS(=O)(=O)c1ccc(F)cc1)Nc1nnc(-c2ccco2)o1
-0.43 | O=C(CNC(=O)c1ccco1)Nc1ccc2c(c1)OCCO2
1.7 | O=C(COc1ncnc2cc([N+](=O)[O-])ccc12)NCCc1ccc(Cl)cc1
-1.5 | CCOC(=O)C1CCN(C(=O)C(C)Sc2ccc(Cl)cc2)CC1 (centres undefined)
0.77 | CCC(Sc1nc2n[nH]c(C)c2c(=N)n1-c1cccc(Cl)c1C)C(=O)N(CC)CC (centres undefined)
0.01 | COCc1cc(C)nc2sc(C(=O)NCCO)c(-n3cccc3)c12
1.2 | CC1CCC(C(C)C)C(OP(=O)(c2ccccc2)C(O)c2ccncc2)C1 (centres undefined)
0.89 | COCC1CCCN(C(=O)c2cc(COc3cccc4cccnc34)on2)C1 (centres undefined)
-2 | Cc1oc(-c2ccccc2Cl)nc1CS(=O)CC(=O)NCCc1ccccc1 (centres undefined)
-1.4 | CCC1=C(OC(=O)N(CC)CC)N2C(=O)OC(=NCC(=O)OC)[C@]2(C)[C@H]2C1=CC[C@H]1C(=O)N(CC(=O)OC)C(=O)[C@H]12

# (list continues)
Kir21 block | mol
1.6 | O=C(CSc1nnc2sc3ccccc3n12)c1ccco1
0.08 | O=C(O)c1cc(NS(=O)(=O)c2ccc3ccccc3c2)ccc1O
0.49 | Cn1c(=O)[nH]c(=O)c2c1nc(N1CCCCCC1)n2CCCSc1nnnn1-c1ccccc1
2.1 | CC(NC(=O)C1CCN(C(=O)[C@@H]2Cc3ccccc3CN2C(=O)OC(C)(C)C)CC1)c1ccccc1 (some centres undefined)
0.14 | CCOC(=O)Cc1csc(NC(=O)c2cc(C)on2)n1
-0.13 | CCC(C(=O)NC(C)(C)C)N(C(=O)c1ccc(Cl)nc1)C1CCCC1 (centres undefined)
0.3 | CC(=O)Nc1ccc(CN2CCN(c3cccc(C(F)(F)F)c3)CC2)cc1
0.8 | Cc1ccc(S(=O)(=O)NCCC(c2ccc(F)cc2)c2ccco2)cc1 (centres undefined)
0.89 | COCCn1c(=O)[nH]c2cc(C(=O)NCc3cccnc3)ccc2c1=O
-0.14 | COC(=O)CSc1nnc(C)n1-c1ccc(C)cc1
0.5 | CCc1c(C)nc2[nH]nc(NC(=O)C(F)(F)F)n2c1=O
0 | CC1=C(C(N)=O)C(c2cccc(O)c2)n2nc(CCCO)nc2N1 (centres undefined)
0.93 | C=CCn1c(N)cc(=O)nc1SCC(=O)Nc1ccc(C(=O)OC)cc1
-0.9 | COc1ccc(NS(=O)(=O)c2cccc(NC(=O)CCC(=O)c3cccs3)c2)cc1
-0.31 | CC1(C)Cc2c(sc3nc(N/N=C/c4ccccc4)[nH]c(=O)c23)CO1
-0.47 | CCOC(=O)C1=C(c2ccccc2)OC(N)=C(C#N)C1c1ccncc1 (centres undefined)
-0.02 | C/C(=C\C(=O)c1ccc(F)cc1)Nc1ccc(N2CCOCC2)cc1
1 | CCn1c(CNC(=O)c2ccc(OC)c(OC)c2)nnc1SCC(=O)Nc1ccc(OC)cc1
-0.01 | COc1ccc(NC(=O)C2CC(=O)N(C(C)C)C2)cc1 (centres undefined)
-1.4 | COc1ccc(S(=O)(=O)Nc2cccnc2)c(C)c1C
-0.82 | COc1ccc(/C=C(\C#N)C(=O)Nc2cc(C)c(Cl)cc2OC)cc1O
0.32 | COc1cc([N+](=O)[O-])ccc1NC(=O)CN(C)C
3.4 | C=CCn1c(SCC(=O)Nc2nnc(CC)s2)nnc1-c1cccnc1
-0.21 | CC1CCN(Cc2ccc(NC(=O)CC3Oc4ccccc4NC3=O)cc2)CC1 (centres undefined)
0.7 | COc1ccc(C2C(C#N)=C(N)Nc3nc4ccccc4n32)cc1 (centres undefined)

# (list continues)
Kir21 block | mol
-0.37 | COc1ccc2[nH]c(=O)c(CN(C(=O)c3cccnc3)c3cccc(C)c3)cc2c1
0.29 | COCCCNS(=O)(=O)c1ccc2[nH]c3c(c2c1)CCCCC3
1.2 | CCCCOc1ccc(C(=O)OCC(=O)N2CCOCC2)cc1
1.2 | N#CC1=C(N)C2=C(N3CCCCC3)CCCC2C1(C#N)C#N (centres undefined)
0.6 | CC(C)(C)c1cc(C(=O)N2CCN(c3ncccn3)CC2)ccn1
-0.88 | O=C(O)CCC(=O)NNC(=O)c1cccs1
0 | C/C(=N/Oc1nc(C)cc(C)n1)c1ccc(F)cc1
0.01 | Cn1c2ccccc2c2ncn(CCC3=CCCCC3)c(=O)c21
-1.5 | CC(C)(C)c1ccc(C(=O)O)c(C(=O)c2ccccc2)c1
-0.77 | Cc1cc(NS(=O)(=O)c2ccc(NC(=S)NCc3ccccc3)cc2)no1
0.53 | COc1ccc(Cn2ccnc2CO)cc1[N+](=O)[O-]
3.4 | CC1=C(C(=O)OCC2CCCO2)C(c2ccc(O)cc2)NC(=O)N1 (centres undefined)
-0.74 | COc1ccc(OC)c(C2C(C#N)=C(N)N(N(C)C)C3=C2C(=O)CCC3)c1 (centres undefined)
0.36 | CNC(=O)COC(=O)c1cc2c(s1)CCCC2
0.29 | O=C1C2CCCCN2C(=O)N1CCCCN1CCN(c2ccc([N+](=O)[O-])cc2)CC1 (centres undefined)
0.78 | C=CCN1C(=O)/C(=C\c2ccc(Oc3nc(N4CCOCC4)nc(N4CCOCC4)n3)c(OC)c2)SC1=S
1.5 | CCOC(=O)c1cccc(NC(=O)/C(=C\c2ccccc2)NC(=O)c2ccccc2Cl)c1
1.2 | Cc1cc(C(=O)OCC(=O)N2CC(=O)Nc3ccccc32)c(C)n1-c1ccc(F)cc1
0.03 | O=S1(=O)C=C(SCc2ccc(Cl)c(Cl)c2)Nc2ccccc21
-0.49 | COc1ccc(-c2noc(CSc3nnc(Cc4ccccc4)n3-c3cccc(C)c3)n2)cc1OC
2.8 | O=C(COC(=O)c1ccccc1C(=O)c1ccc(Cl)c([N+](=O)[O-])c1)NC1CC1
0.45 | CCOC(=O)C1CCN(C(=O)c2ccc(OCC(=O)N3CCOCC3)c(OC)c2)CC1
-1.3 | Cc1ccc(S(=O)(=O)c2nc(S(C)(=O)=O)sc2N2CCCCCC2)cc1
0.71 | CCC(=O)Nc1ccc(N2CCC(C)CC2)cc1
1.4 | CSc1ccc(Cl)c(C(=O)OCC(=O)NCc2ccco2)c1

# Continued; the last 3 above are carried over.
Kir21 block | mol
-1.3 | Cc1ccc(S(=O)(=O)c2nc(S(C)(=O)=O)sc2N2CCCCCC2)cc1
0.71 | CCC(=O)Nc1ccc(N2CCC(C)CC2)cc1
1.4 | CSc1ccc(Cl)c(C(=O)OCC(=O)NCc2ccco2)c1
-1.5 | CC1Oc2ccccc2N(CC(=O)Nc2ccc3c(c2)OCO3)C1=O (centres undefined)
0.6 | CCOc1ccc(C(=O)NCC(C)CN(C)C)cc1OCC (centres undefined)
-2.2 | Cc1cccc(C)c1OCC(=O)N/N=C/c1cccnc1
-0.14 | O=C(Nc1cccnc1)c1ccc(S(=O)(=O)N2CCCCCC2)cc1
0.25 | COC(=O)c1[nH]c2cc(OC)c(OC)cc2c1NC(=O)c1cccc(OC)c1
-1.9 | S=C(Nc1cccc(Cl)c1Cl)NC1CCN(Cc2ccccc2)CC1
0.67 | Cc1ccccc1CS(=O)(=O)Cc1ccc(C(=O)NCCCN2CC(C)CC(C)C2)o1 (centres undefined)
1.2 | CS(=O)(=O)N1CC2CCCN2c2cc(C(F)(F)F)ccc21 (centres undefined)
-0.55 | CCN(CC)CCCNC(=O)/C(=C\c1cccn1C)NC(=O)c1cccs1
0.78 | CCCN1CCC(NC(=O)Nc2ccccc2C(=O)OC)CC1
2 | Cc1cccc(OCc2nnc(SCC(=O)NCC3CCCO3)n2C)c1 (centres undefined)
-0.12 | CCCc1nn(C)c2c(=O)[nH]c(-c3cc(S(=O)(=O)N4CCN(C)CC4)ccc3OCC)nc12
1.1 | COc1cccc(N2C(C(C)=O)=NN(c3ccccc3)C2c2ccc(N3CCOCC3)cc2)c1 (centres undefined)
-1.1 | CSc1nsc(/C=C/Nc2ccc(F)cc2F)c1C#N
0.82 | CCCS(=O)(=O)C(=C1Nc2ccccc2N1)S(=O)(=O)CCC
-0.24 | Cc1ccc(NS(=O)(=O)c2c(C)[nH]c(C)c2C(=O)N2CCCCC2)c(Br)c1
-1 | O=C1C(c2ccc(F)cc2)N(Cc2ccc3c(c2)OCO3)C(=O)CN1C1CCCCC1 (centres undefined)
0.92 | COc1cc(OC)cc(C(=O)N2CCC(N3CCN(c4ccccc4)CC3)CC2)c1
-1.5 | COCCCNC(=O)CSC1=Nc2ccccc2C2=NC(c3ccccc3)C(=O)N12 (centres undefined)
0.01 | CCC(C(=O)O)n1c(C(F)(F)F)nc2ccccc21 (centres undefined)
0.83 | COc1ccc(CNC(=O)[C@@H]2CC=C[C@@H]3CCN(C4CC4)C(=O)[C@@H]32)cc1
-0.02 | CCN(CCn1cccn1)Cc1cn[nH]c1-c1ccc(-c2ccccc2)cc1
-0.2 | O=C(Nc1ccccc1[N+](=O)[O-])c1cc(S(=O)(=O)N2CCOCC2)cs1
-1.7 | CS/C(=C(/C#N)S(=O)(=O)c1ccc(Cl)cc1)N1CCOCC1
0.74 | Cc1ccc(C(=O)NC(=S)NCc2cccnc2)cc1
0.73 | CC1(C)CC(=O)C(C2c3ccccc3S(=O)(=O)c3ccccc32)C(=O)C1

# In the list so far, these contain a furan ring, fused or not.
Kir21 block | mol
0.96 | COc1ccc(C(CNC(=O)c2ccco2)N2CCCCC2)cc1 (centres undefined)
0.52 | CCCCNC(=O)CO/N=C(\C)c1cc2ccccc2o1
2.3 | O=C(CCS(=O)(=O)c1ccc(F)cc1)Nc1nnc(-c2ccco2)o1
-0.43 | O=C(CNC(=O)c1ccco1)Nc1ccc2c(c1)OCCO2
1.6 | O=C(CSc1nnc2sc3ccccc3n12)c1ccco1
0.8 | Cc1ccc(S(=O)(=O)NCCC(c2ccc(F)cc2)c2ccco2)cc1 (centres undefined)
1.4 | CSc1ccc(Cl)c(C(=O)OCC(=O)NCc2ccco2)c1
0.67 | Cc1ccccc1CS(=O)(=O)Cc1ccc(C(=O)NCCCN2CC(C)CC(C)C2)o1 (centres undefined)

# An excerpt, and most or all hits are left out here.
